Resorufin autofl = qHTS Assay for Spectroscopic Profiling in Resorufin Spectral Region; max dye-equivalent concentration, M; 59,000 tested, 0.04% active; Compound fluorescence, resorufin region 547/598 nm, buffer; active compounds read high; AID 588, 2007; active = above 10 nM dye equivalent; inconclusive = 1 to 10 nM; inactive = 1 nM or less; a few of its hits are not listed in these tables; note: highest value over a series up to 38 µM
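Compounds in 100 mM Tris, pH 8.0, incubated 15 min at room temperature, then fluorescence read at 547 nm excitation/598 nm emission. Signal converted to dye-equivalent concentration via an on-plate six-point resorufin standard curve, per compound concentration.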
TSHR agonist = qHTS Assay for Agonists of the Thyroid Stimulating Hormone Receptor; Thyrotropin receptor (Homo sapiens), P16473; HEK293-CNG-TSHR cells (CNG channel as cAMP sensor), membrane potential dye, cAMP; Potency, µM (titrated, usually from 57.1 µM), without a hit: at the highest dose activation, most hits filed as activators; 73,000 tested, 0.48% active; AID 926, 2007; active = well fitted activation curve of enough size with the parental cells flat; inconclusive = any curve in the parental cells; inactive = parental cells flat and receptor cells flat or falling; note: potency is the fitted concentration of half-maximal effect; % of control where 0% means no effect; weak receptor curves with flat parental cells got no call and are not listed
Target sequence (P16473 whole entry, looked up): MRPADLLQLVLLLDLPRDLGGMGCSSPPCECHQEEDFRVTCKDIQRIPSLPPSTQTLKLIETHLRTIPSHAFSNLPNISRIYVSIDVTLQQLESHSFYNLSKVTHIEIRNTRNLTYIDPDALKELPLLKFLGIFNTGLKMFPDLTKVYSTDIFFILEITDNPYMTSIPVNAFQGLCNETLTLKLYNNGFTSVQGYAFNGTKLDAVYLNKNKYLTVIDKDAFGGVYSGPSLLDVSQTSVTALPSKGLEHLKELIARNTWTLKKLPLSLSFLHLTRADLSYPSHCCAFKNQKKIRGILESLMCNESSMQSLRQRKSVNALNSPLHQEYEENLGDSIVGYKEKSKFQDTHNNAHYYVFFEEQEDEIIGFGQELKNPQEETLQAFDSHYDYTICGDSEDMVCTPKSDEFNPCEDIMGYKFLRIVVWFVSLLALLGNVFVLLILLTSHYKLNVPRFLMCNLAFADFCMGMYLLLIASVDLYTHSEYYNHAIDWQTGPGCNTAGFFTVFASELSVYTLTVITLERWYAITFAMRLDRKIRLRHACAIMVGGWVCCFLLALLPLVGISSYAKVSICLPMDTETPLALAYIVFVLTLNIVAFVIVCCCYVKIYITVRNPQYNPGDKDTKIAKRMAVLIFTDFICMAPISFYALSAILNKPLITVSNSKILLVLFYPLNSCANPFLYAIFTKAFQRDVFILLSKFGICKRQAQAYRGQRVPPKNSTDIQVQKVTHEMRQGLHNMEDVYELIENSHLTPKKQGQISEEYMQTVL
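HEK 293 cells stably expressing TSHR and a cAMP-gated CNG channel; parental CNG-only cells as counterscreen. Cells preloaded 60 min with membrane potential dye plus 100 uM RO 20-1724, then compound 30 min; fluorescence read at 590 nm.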
AID923 = qHTS Assay for Allosteric/Competitive Inhibitors of Caspase-1: Spectroscopic Profiling in AFC Spectral Region; compound fluorescence, AFC spectral region (405/520 nm); almost no hit is shown here; Potency, µM (series often up to 57.5 µM), inactives show at the highest dose fluorescence increase, actives largely listed as activators; 75,000 tested, 1.1% active; active = well fitted activation curve with a large enough effect; inconclusive = small, poorly fitted or top-dose-only effect;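 note: potency is the fitted concentration of half-maximal effect; 0% is about no effect; scaled to a free AFC standard on each plate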
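Titrations up to 57 uM read every 20 sec for 3 min (405/520 nm) with 50 nM caspase 1 and 5 uM Ac-WEHD-AFC, pH 7.5 HEPES buffer. Fluorescence-vs-time intercept gave baseline, scaled against on-plate AFC standard.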
A647 autofl = qHTS Assay for Spectroscopic Profiling in A647 Spectral Region; Compound fluorescence, A647 channel (570/671 nm), Tris buffer; max dye-equivalent concentration, M; 59,000 tested, under 10 active; AID 592, 2007; active means above 1 µM dye equivalent; inconclusive means 0.1 to 1 µM; inactive means 0.1 µM or less;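 note: values scaled relative to a standard on each plate; highest value over a series up to 38 µM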
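Buffer was dispensed, compounds and Alexa 647 standards were pin-transferred, and plates sat 15 min at room temperature. Intensity at 570/671 nm was then converted to dye-equivalent concentration using the plate's A647 standard curve.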
A488 fluor = qHTS Assay for Spectroscopic Profiling in A488 Spectral Region; max dye equivalency, M; 59,000 tested, 0.1% active; compound autofluorescence, A488 spectral region, dye equivalency; active compounds read high; AID 591, 2007; active = above 10 nM dye equivalent; inconclusive = 1 to 10 nM; inactive = 1 nM or less; about half of its hits are not listed in these tables;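 note: highest value over a series up to 38 µM; compound alone in buffer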
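Spectroscopic profiling in the A488 region: compounds in pH 8.0 Tris (100 mM), 15 min RT, CCD imaging with 480 nm excitation and 540 nm emission; responses normalized against A488 dye standards.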
Active calls of the source: *; i = inactive; ? = inconclusive; / = no result given; & = joins results of further samples; [ ] = another dose, or the depositor's remark. Some of the compounds tested; count on the stated rates, not on these rows.

Results follow in this order: TSHR agonist	Resorufin autofl	A488 fluor	AID923	A647 autofl
> COc1ccc(C2=NOC(C(=O)NCCCN3CCOCC3)C2)cc1 (centres undefined)
  -3%	i	i	-1.7%	2.6e-09
> COC(=O)c1nc(NC(C)=O)n[nH]1
  -3%	i	i	0.0%	8.8e-09
> CCOc1ccc(/C(O)=C2/C(=O)C(=O)N(CCOCCO)C2c2ccccn2)cc1 (centres undefined)
  8%	i	i	0.0%	1.8e-08
> COc1ccc(-c2ccc(-c3noc(-c4cccs4)n3)c(OC)n2)cc1
  14%	i	i	13%	2.8e-09
> O=C(CSc1nnc(Cc2ccccc2)o1)N1CCOCC1
  28%	i	i	0.8%	2.9e-09
> O=c1[nH]c(C(F)(F)F)nc2ccccc12
  11%	i	i	0.7%	1e-09
> COc1cc(C2CC(=O)N3CN(Cc4ccco4)CSC3=C2C#N)ccc1OCc1ccccc1 (centres undefined)
  -10%	/	/	1.8%	/
> CC(C)n1c(C(O)c2ccccc2)nc2ccccc21 (centres undefined)
  ?	/	/	16%	/
> O=C(Cn1c(=O)[nH]c2ccsc2c1=O)NC1CCCCCC1
  9%	i	i	-0.1%	1e-09
> CC1CCCCC1NC(=O)CSc1nnnn1-c1ccccc1 (centres undefined)
  /	i	i	-0.5%	1e-09

Gathered by group, the compounds so far containing an aryl methoxy group (three)
Results follow in this order: TSHR agonist	Resorufin autofl	A488 fluor	AID923	A647 autofl
> COc1ccc(C2=NOC(C(=O)NCCCN3CCOCC3)C2)cc1 (centres undefined)
  -3%	i	i	-1.7%	2.6e-09
> COc1ccc(-c2ccc(-c3noc(-c4cccs4)n3)c(OC)n2)cc1
  14%	i	i	13%	2.8e-09
> COc1cc(C2CC(=O)N3CN(Cc4ccco4)CSC3=C2C#N)ccc1OCc1ccccc1 (centres undefined)
  -10%	/	/	1.8%	/

Following part:
Results follow in this order: TSHR agonist	Resorufin autofl	A488 fluor	AID923	A647 autofl
> CCC(C)NC(=O)c1c(N)n(/N=C/c2cccnc2)c2nc3ccccc3nc12 (centres undefined)
  16%	i	i	2.4%	1e-09
> CCN(CC)c1ccc(NC(=O)C(C)C)cc1
  19%	i	i	0.4%	2e-09
> COc1ccc(Cn2c(O)cc(=O)[nH]c2=O)cc1
  /	i	i	/	5e-08
> CCn1c(Cn2nnc(-c3ccccc3)n2)nnc1SCC(=O)Nc1ccccc1
  ?	i	i	0.5%	2.1e-08
> O=S(=O)(NCc1csc(-c2cccnc2)n1)c1ccc2c(c1)OCCO2
  -4%[11.4 µM]	i	i	-0.5%	1e-09
> COc1ccc(N2CC(C)Cn3c2nc2c3c(=O)n(CCN3CCOCC3)c(=O)n2C)cc1 (centres undefined)
  -18%	i	i	1.3%	2.9e-08
> Cc1noc(C)c1CSc1nc2ccccc2[nH]1
  2%	i	i	-0.3%	1.1e-08
> COc1ccc(C(C#N)N2CCCCCC2)cc1OC (centres undefined)
  0%	i	i	0.8%	3.3e-08
> C[C@@H](C1=C(CCN(C)C)Cc2ccccc21)c1ccccn1
  ?	/	/	-1.3%	/
> Cc1nnc(SCc2nnc(-c3ccccc3)o2)n(N)c1=O
  12%	i	i	-0.4%	1.6e-09
> CN1C(=O)c2oc3ccccc3c(=O)c2C1c1ccccn1 (centres undefined)
  26%	i	i	-0.3%	1e-09
> COc1ccc(C(=O)N2CCN(C(=O)CC(C)C)CC2)cc1OC
  -1%	/	/	0.5%	/
> Clc1ccc(CN2C3=NCCCN3c3ccccc32)cc1
  ?	i	i	-0.1%	3.5e-09
> Cc1oc2c(C)c3oc(=O)c4c(c3cc2c1C)CCCC4
  11%	/	/	0.5%	/
> CCOC(=O)c1c(C)n(CC(COC(C)=O)OC(C)=O)c2ccc(OC(C)=O)cc12 (centres undefined)
  7%	/	/	3.6%	/
> O=C(CN(Cc1cccs1)C(=O)CNS(=O)(=O)c1ccccc1)NCc1ccco1
  7%	i	i	0.8%	1e-09
> COCC(=O)Nc1nc(-c2ccccc2)c(C)s1
  -6%	i	i	-0.1%	1e-09
> Cn1c(NCCN2CCCCC2)cc(=O)n(C)c1=O
  /	i	i	/	3.4e-08
> Cc1ccc(-c2noc(CN3C(C)CCCC3C)n2)cc1 (centres undefined)
  2%	/	/	-0.3%	/
> CCn1ccc(C(=O)Nc2ccc(N(C)C(C)=O)cc2)n1
  -2%	i	i	-0.2%	1.4e-09
> Cc1noc(C)c1C(=O)N1CCC2(CCCN(C(=O)Nc3cccc(C#N)c3)C2)CC1
  ?	i	i	-1.7%	1.1e-09
> CNc1nc(N)c(C(=O)C(C)(C)C)s1
  -3%	i	i	-1.2%	1e-09
> CCOC(=O)C(C)C(C)=O (centres undefined)
  5%	/	/	1.3%	/
> Cn1c(SCC(=O)NC2CCCC2)nnc1-c1ccc(S(=O)(=O)N2CCOCC2)cc1
  ?	i	i	-3.8%	1e-09
> COc1cccc(-n2cc3c(c2-c2ccccc2)c(=O)n(C)c(=O)n3C)c1
  /	i	i	-0.2%	7.8e-09
> O=C(c1ccco1)N1CCN(CC(=O)N2c3ccccc3CCc3ccccc32)CC1
  6%	i	i	-0.4%	1.1e-08
> N#CC(=C(/N)Sc1ccccc1N)/C(C#N)=C(/N)Sc1ccccc1N
  -21%&-14%	i	i	1.7%&-1.0%	4.9e-09
> Brc1cc(Oc2cc(Br)c(Br)c(Br)c2Br)c(Br)c(Br)c1Br
  4%	/	/	-0.8%	/
> Cc1ccc2ccccc2c1CSc1nc(N)nc2c1ncn2CC(C)C
  5%[11.4 µM]	i	i	-2.6%[11.5 µM]	1e-09
> C=CCSc1nnc(NC(=O)c2cccc(S(=O)(=O)N3CCOCC3)c2)s1
  0%	i	i	-1.3%	2.8e-09
> CC(=O)c1c(C)[nH]c(C)c1C(C)=O
  -3%	/	/	0.3%	/
> Cc1ccccc1OCc1nnc2c3cnn(C)c3ncn12
  -1%	i	i	-2.0%	1e-09
> Cc1ccc(CNS(=O)(=O)c2ccc3oc(C(=O)O)c(C)c3c2)cc1
  5%	i	i	-0.5%	1e-09
> O=C(c1ccc(Nc2cccc(C(F)(F)F)c2)nc1)N1CCCC1
  5%	i	i	-0.4%	4.4e-09
> CC(C)CC(=O)NCC(C)NC(=O)CC(C)C (centres undefined)
  1%	i	i	-0.6%	1e-09
> CCCCCC(=O)Nc1ccc(N2CCN(S(C)(=O)=O)CC2)cc1
  1%	i	i	-0.7%	1.9e-08
> C/C(=C(/CCO)SSC[C@@H]1CCCO1)N(C=O)Cc1cnc(C)nc1N
  ?	i	i	-0.5%[25.7 µM]	2.7e-09
> CCc1nnc(NC(=O)CCC(=O)NC2CCCCC2)s1
  /	i	i	1.1%	8.3e-09
> CCCOC(=O)NC1C(NC(=O)OCCC)N(C)C(=O)N1C (centres undefined)
  1%	i	i	-0.8%	1e-09
> COc1ccc2c(c1)c(C(=O)CNc1nc(C)cs1)c(C)n2C
  13%	i	i	0.8%	2.9e-09
> CCC(C(=O)N1CCN(S(C)(=O)=O)CC1)c1ccccc1 (centres undefined)
  1%	i	i	0.5%	2.6e-08
> Cc1noc(C)c1CSc1ccc2ccccc2n1
  22%	i	i	-1.2%	1.2e-08
> O=C(c1ccc(-n2c(=O)c(=O)[nH]c3ccccc32)cc1)N1CCCN(Cc2ccccc2)CC1
  -1%	/	/	4.6%	/
> Cc1cc(NCCCn2ccnc2)n2ncc(-c3ccccc3)c2n1
  -1%[11.4 µM]	i	i	-1.2%	1.7e-08
> Cc1cc(=O)oc(C)c1C(=O)O
  -5%	i	i	-2.0%	1e-09
> CCOC(=O)C1CCN(C(=O)CCCOc2ccccc2)CC1
  ?	/	/	2.7%	/
> Cc1ccccc1-c1ccc2ncnc(NCCN3CCOCC3)c2c1
  ?	i	i	9.8%	3.1e-08
> Clc1ccccc1CSc1ncccn1
  14%	i	i	-1.5%	2e-09
> Cn1c(C(=O)N2CCN(c3ccc(Cl)cc3)CC2)cc2c(=O)[nH]c3ccccc3c21
  -2%	i	i	1.3%	2.6e-08
> CCCC(=O)Nc1ccccc1-c1nnc(SC)[nH]c1=O
  6%	/	/	0.0%	/

(further entries)
Results follow in this order: TSHR agonist	Resorufin autofl	A488 fluor	AID923	A647 autofl
> COc1cc(C2NC(=O)NC(c3ccccc3)=C2C(C)=O)ccc1OCC#N (centres undefined)
  11%	i	i	0.8%	3.4e-08
> C=CCNC(=O)C(C#N)c1nc2ccccc2nc1N1CCN(Cc2ccccc2)CC1 (centres undefined)
  12%	i	?	4.5%	1e-09
> O=C(CCSc1nc(-c2ccco2)cc(C(F)(F)F)n1)NCC1CCCO1 (centres undefined)
  11%	i	i	0.9%	5.7e-08
> COCC(=O)Nc1ccccc1C(=O)Nc1ccc(OC)cc1
  -1%	i	i	-1.8%	2.8e-08
> CCOc1ccc(Nc2nc3c(c(=O)[nH]2)CCCC3)cc1
  -16%	i	i	-0.8%	2.2e-08
> O=C(CCCSc1nc(-c2ccco2)cc(C(F)(F)F)n1)Nc1ccc2c(c1)OCO2
  -6%	i	i	0.2%	6.4e-09
> CCOC(=O)N1CCC(NC(=O)Cn2nc(-c3ccccc3)ccc2=O)CC1
  27%	i	i	-0.4%	1e-09
> CN(Cc1ccccc1)c1oc(COc2ccccc2F)nc1C#N
  ?	/	/	1.4%	/
> COc1ccc(C(=O)Cn2c(N3CCOCC3)nc3ccccc32)cc1OC
  5%	i	i	4.4%	2.3e-08
> Nc1nonc1C(=O)NCCNC(=O)c1cccs1
  13%	i	i	-0.8%	6.8e-09
> CCOC(=O)C(C(C)=O)C(c1ccc(OC)cc1)C(C(C)=O)C(=O)OCC (centres undefined)
  8%[11.4 µM]	i	i	0.7%	4.6e-09
> Cc1cccc(NC(=O)c2cc(NC(=O)C3CCCCC3C(=O)O)ccc2Cl)n1 (centres undefined)
  -3%	i	i	1.9%	2.5e-08
> O=C(C1CCCCC1)N(Cc1ccccc1)c1ccccn1
  16%	i	i	-0.8%	2.9e-09
> CCCC(CCC(=O)Nc1ccc(C(=O)OCC)cc1)C(=O)O (centres undefined)
  /	i	i	/	1.7e-08
> C=CCn1c(SCC(=O)Nc2ccccc2OC)nc(O)c(CC)c1=O
  9%[11.4 µM]	/	/	-1.2%	/
> COc1ccccc1C(=O)Nc1ccc(S(=O)(=O)Nc2cc(C)on2)cc1
  -6%	i	i	0.9%	1.5e-08
> CCn1ncc(C2=NOC(C(=O)Nc3cc(OC)c(Cl)cc3OC)C2)c1C (centres undefined)
  9%	/	/	2.1%	/
> COc1cc(NC(=O)c2cccs2)c(OC)cc1NC(=O)CCn1nnc2ccccc21
  3%	i	i	-0.3%	3.9e-08
> COc1cc(-c2nc(-c3ccccn3)no2)cc(OC)c1OC
  2%[11.4 µM]	/	/	1.1%	/
> COC(=O)COc1nc(C)c2c(c1C#N)CC(C)(C)OC2
  -8%	i	i	3.0%	3.9e-08
> CCCCCSc1nc2c(c(=O)[nH]c(=O)n2C)n1CCc1ccccc1
  7%	/	/	-3.1%	/

Assay outcomes from PubChem BioAssay.
